# Compound activity: PubChem, National Center for Advancing Translational Sciences (NCATS)
# Vaccinia Venus: inhibitors of vaccinia virus (Venus reporter). Vaccinia virus Venus reporter expression, fluorescence. AID 720580. Potency, µM (top dose mostly 36.5 µM), without a hit: at the highest dose activity change, negative = inhibition, hits mostly inhibitors. actives 0.46% (n = 330,000); active means well fitted inhibition curve with a large enough effect; inconclusive means small, poorly fitted or top-dose-only effect; inactive means no such curve, though single readings can be large or run the other way; tested in A549 cells; also: nearly all actives have a fitted effect of over 30% in size; inactives centre near -10
# Vaccinia mCherry: vaccinia inhibition (mCherry reporter). Vaccinia virus mCherry reporter infection, fluorescence; about a quarter of the inactives have no number. Potency, µM (titrated, usually from 36.5 µM), for the others: at the top dose activity change, negative = inhibition, usual class: inhibitors. actives 0.63% (n = 310,000). AID 720579; active = well fitted inhibition curve with a large enough effect; inconclusive = small, poorly fitted or top-dose-only effect; inactive = no such curve, though single readings can be large or run the other way; tested in A549 cells; also: nearly all actives have a fitted effect of over 35% in size; inactives centre near -10
# * marks the source's active call; other numbers are inactive results; i = inactive; ? = inconclusive; · = not tested or not shown; & = joins results of further samples; [ ] = dose if it differs, or a comment. % is scaled to controls: 0 for no effect and ±100 for the full control effect; potency is read from the fitted curve at half-maximal effect.
SMILES,Vaccinia Venus,Vaccinia mCherry
CCOC(=O)c1cccc(NC2c3ccccc3C(=O)N2Cc2ccco2)c1 (stereo not drawn),-8%,?
COc1ccc(NS(=O)(=O)c2ccc(C)c(C(=O)NCC(c3cccs3)N3CCOCC3)c2)cc1 (stereo not drawn),-13%,-21%
CC(C)(C)OC(=O)N1CCC[C@H]1C(=O)N/N=C/c1ccc2nccnc2c1,-20%,-19%
O=C(NCC1CCCO1)c1cc2ccccc2o1 (stereo not drawn),-7%,i
COc1cccc(-c2cc(C(=O)O)[nH]n2)c1,-23%,·
CCCC1CCC(C(=O)Nn2c(C)nc3ccccc3c2=O)CC1 (stereo not drawn),-3%,9%
S=C(c1ccc(N2CCOCC2)cc1)N1CCCCC1,7%,-7%
CC(C)Oc1ccccc1OC1(C)CCN(Cc2ccc(OC(F)(F)F)cc2)C1 (stereo not drawn),?,-20%
O=C(Nc1ccc(N2CCOCC2)c(C(=O)O)c1)c1ccc(Br)cc1,-2%,0%
COc1ccccc1NC(=O)Cn1ccn(-c2cc(C)cc(C)c2)c(=O)c1=O,-7%,-11%
CCC(=O)Nc1cc(-c2nc3ccccc3s2)c(Cl)cc1Cl,-8%,-2%
CCOc1cc(CNC(=O)c2ccc3c(c2)NC(=O)C2CCCCN32)cc(OCC)c1OCC (stereo not drawn),-3%,-18%
CCN(CC)S(=O)(=O)c1ccc2c(c1)N(CC(=O)NCc1ccc(F)cc1)C(=O)CO2,-2%,-6%
O=c1c(Cc2ccc(Cl)cc2)c(O)ccn1Cc1cccs1,-22%,i
COc1ccc(CCNC(=O)C(C)n2c(=O)cc(-c3ccccc3)c3c(C)nn(C)c32)cc1OC (stereo not drawn),1%,-9%
COC(=O)c1ccc(C)c(NC(=O)CSc2sc3c(O)cc(=O)[nH]c3c2C#N)c1,0%,i
COc1ccc2oc(=O)c(C(=O)NCCc3ccc(OC)c(OC)c3)cc2c1,-2%,i
COC(=O)Cc1csc(Nc2ccc(Cl)cc2)n1,-6%,i
Cc1ccc(C2=NN(CCC(=O)NCc3ccc4c(c3)OCO4)C(=O)CC2)cc1,-26%,-18%
CCOC(=O)Cn1c(-c2cccnc2)nc(-c2ccccc2)c1-c1ccccc1,-7%,i
COc1cccc(CNC(=O)C2CCN(S(=O)(=O)c3ccc4c(c3)CCCN4C(C)=O)CC2)c1,3%,-5%
NS(=O)(=O)c1ccc(CNC(=O)C(c2ccccc2)c2ccccc2)cc1,-16%,-7%
O=C(O)/C=C/CO,-6%&-9%,i
COC(=O)c1c(NC(=O)CCC(=O)O)sc(Cc2ccccc2)c1C,-19%,i
O=C(OCCc1cc2ccccc2c(=O)o1)c1ccc(F)cc1,-14%,i
O=[N+]([O-])c1ccccc1/C=N/Nc1nc(N2CCCC2)nc(N2CCCC2)n1,-4%,-4%
COc1ccccc1CNC(=O)Cn1nc(C)c([N+](=O)[O-])c1C,-9%,-10%
Cc1ccc(NS(=O)(=O)c2ccc3c(c2)NC(=O)C(C)C(=O)N3)cc1F (stereo not drawn),-7%,-19%
COc1ccc(-c2cc(=O)oc3cc(OCC(=O)NCc4ccccn4)ccc23)cc1,-4%,2%
CCN1C(=O)[C@@H]2[C@@H](c3ccc(-c4ccc(C(C)=O)cc4)c(OC)c3)N3CCC[C@@]3(C(=O)OC)[C@@H]2C1=O,-13%,-12%
Cc1ccc(C(=O)N/C(=C/c2ccco2)C(=O)NCCc2c[nH]c3ccccc23)cc1C,-23%,·
CN(C)c1ccc(S(=O)(=O)N2CCCCC2)cc1NC(=O)C1=COCCO1,?,-15%
CC(C)c1c(O)c2c(n(-c3ccccc3)c1=O)CCCC2,-4%,-7%
Cc1cc(C)cc(OCC(=O)Nc2ccc3c(c2)OCO3)c1,-8%,i
Cc1ccccc1N(C)C(=O)c1coc(=O)c2ccccc12,-6%,i
CCOc1ccccc1NC(=O)c1c(NC(=O)Cc2ccccc2)sc2c1CCCC2,0%,-3%
CC(=O)c1cccc(NC(=S)N2CCC(Cc3ccccc3)CC2)c1,-13%,-14%
COc1cc2[nH]c(=S)n(CC3CCCO3)c(=O)c2cc1OC (stereo not drawn),-3%,-16%
COC(=O)c1ccc(Cl)c(NC(=O)CN(c2ccc(OC)cc2)S(=O)(=O)c2ccccc2)c1,-8%,·
COc1ccc(NC(=O)C[C@H]2C(=O)N(C3CCCCC3)C[C@@H]2C)cc1,-14%,i
CCc1noc(C)c1C(=O)NCCN1C(=O)S/C(=C\c2ccccc2F)C1=O,-22%,-14%
COc1cccc(CC(=O)Nc2nc(-c3cc(OC)ccc3OC)cs2)c1,?,?
Cc1cccc(Nc2nc(-c3ccc(O)cc3O)cs2)n1,-21%,?
CN1CCN(C(=O)C2CCCN(S(=O)(=O)c3ccc(F)cc3)C2)CC1 (stereo not drawn),-3%,-14%
CC(Sc1nc2c(c(=O)[nH]1)CCCC2)C(=O)Nc1cc(C(F)(F)F)ccc1Cl (stereo not drawn),7%,-7%
CCN1CCCC1CNC(=O)c1cnn(-c2nccc(-c3ccccc3OC)n2)c1-c1ccco1 (stereo not drawn),0%,-14%
C[C@H](CO)N1C[C@H](C)[C@@H](CN(C)Cc2ccc(C(=O)O)cc2)OCc2cnnn2CCCC1=O,-14%,i
O=C(Nc1ccc(S(=O)(=O)N2CCOCC2)cc1)C1CC1,0%,-11%
Cc1nn(Cc2ccccc2Cl)c(C)c1N,-8%,-29%
CCCCCCCCNc1nc(Cl)nc(NCc2ccco2)n1,-6%,-9%
O=C(CCN1CCN(Cc2ccccc2)CC1)NNC(=O)c1ccc(Cl)c(Cl)c1,-12%,-17%
Cc1ccc(-n2c(SCC(=O)N/N=C/C=C/c3ccccc3[N+](=O)[O-])nc3ccccc3c2=O)cc1,-7%,-16%
O=C(OCn1nnc2ccccc2c1=O)c1cc(-c2ccccc2)nc2ccccc12,-8%,-14%
CCN(CCNC(=O)Nc1ccc(Cl)cc1)c1ccccc1,?,·
CC(NC(=O)COC(=O)Cn1cnc2ccccc2c1=O)C1CC2CCC1C2 (stereo not drawn),2%,i
Cn1nc(C(=O)N2CCN(C(c3ccccc3)c3ccccc3)CC2)c2ccccc2c1=O,?,-6%
CCOc1ccc(S(=O)(=O)N(C)c2ccc(OCC(=O)Nc3ccc4[nH]c(=O)[nH]c4c3)cc2)cc1,0%,·
CCc1cccc(NC(=O)CSC2=NS(=O)(=O)c3ccccc32)c1,?,?
COc1ccc2c(c1)N1CCN=C1N2C,-18%,·
Cc1ccc(Cc2c(-c3cccc(Br)c3)nc3ccc(Cl)cn23)cc1,-6%,i

# Later entries:
SMILES,Vaccinia Venus,Vaccinia mCherry
Cc1nn2c(-c3ccncc3)nnc2c2ccccc12,?,·
CCCC(c1nnnn1Cc1ccc(F)cc1)N1CCN(C)CC1 (stereo not drawn),-16%,i
C=CCOC(=O)/C(=C\c1cccc2ccccc12)NC(=O)c1ccccc1,-29%,i[1.46 µM]
COc1ccc(CC(NC(C)=O)C(=O)NC2CCN(S(=O)(=O)c3ccc(NC(C)=O)cc3)CC2)c(OC)c1 (stereo not drawn),-4%,i
CCN1C(=O)[C@@H]2[C@@H](c3ccc(-c4cc(C(C)=O)cs4)cc3)N3CCC[C@@]3(C(=O)OC)[C@@H]2C1=O,-10%,-12%
Cc1ccc(C(=O)Oc2cc(N)n(S(=O)(=O)c3ccc(F)cc3)n2)cc1,-2%,-11%
CCc1nnc(SCc2cccc(F)c2)nc1CC,-4%,i
CC(C)[C@H](NC(=O)OCc1ccccc1)C(=O)OCC(=O)N1CCN(c2ccccc2)CC1,-21%,-1%
N#Cc1ccccc1OCC(=O)NCC1(N2CCCCC2)CCCCC1,-8%,-28%
COc1ccc(NC(=O)CCCCC#Cc2ccccc2)cc1,-1%,i
COC(=O)c1c(NC(=O)/C=C/c2ccc(OC)c(OC)c2)sc2c1CCC2,-10%,-11%
Cc1ccc(C(=O)OCC(=O)NCc2ccccc2)s1,-6%,i
CC(C)=CCC[C@](C)(O[C@@H]1O[C@H](CO[C@@H]2OC[C@@H](O)[C@H](O)[C@H]2O)[C@@H](O)[C@H](O)[C@H]1O)C1CC[C@]2(C)C1[C@H](O)CC1[C@@]3(C)CC[C@H](O[C@@H]4O[C@H](CO)[C@@H](O)[C@H](O)[C@H]4O)C(C)(C)C3CC[C@]12C (stereo partly drawn),-25%,i
COc1ccc(-c2ccc(CCC(=O)O)n2CC(=O)Nc2ccccc2C)cc1,-4%,-28%
Cc1ccc(Cn2cc(S(=O)(=O)c3ccc(Cl)cc3)c(=O)c3cc(F)ccc32)cc1,-7%,-7%

# In a second layout: results already given.
SMILES | Vaccinia Venus | Vaccinia mCherry
Cc1ccc(C(=O)Oc2cc(N)n(S(=O)(=O)c3ccc(F)cc3)n2)cc1 | -2% | -11%
CCc1nnc(SCc2cccc(F)c2)nc1CC | -4% | i
CC(C)[C@H](NC(=O)OCc1ccccc1)C(=O)OCC(=O)N1CCN(c2ccccc2)CC1 | -21% | -1%
N#Cc1ccccc1OCC(=O)NCC1(N2CCCCC2)CCCCC1 | -8% | -28%

# Next records
SMILES,Vaccinia Venus,Vaccinia mCherry
CC1CC2OC(=O)C3(C)CCCC(C)(C23)C1(O)CCc1ccoc1 (stereo not drawn),-6%,-9%
Cn1c(=O)c2[nH]c(CCNC(=O)c3ccccc3)nc2n(C)c1=O,-6%,i
COc1ccc([C@@H]2CC=C(C(=O)O)[C@H](c3ccc(F)cc3)N2S(=O)(=O)c2ccc(Cl)cc2)cc1,-4%,-3%
Cc1ccc(OC(C)C(=O)Nc2cc(C)on2)cc1 (stereo not drawn),-6%,-14%
COc1ccccc1OCCn1cc(/C=N/NC(=O)c2ccncc2)c2ccccc21,-1%,i
CCOc1ccc(NS(=O)(=O)c2ccc(C(=O)N(C)C)s2)cc1,-5%,-12%
COc1ccccc1NC(=O)CN1CCN(CC(=O)Nc2ccc(Cl)c(C(F)(F)F)c2)CC1,?,·
O=C(COc1ccccc1)NCC(=O)N/N=C/c1ccc(O)cc1O,-16%,-24%
Cc1ccc(-c2noc(-c3ccccc3C(=O)NCC3CCCO3)n2)cc1 (stereo not drawn),-9%,·
COc1ccc(N(CC(=O)NCc2ccccc2)S(=O)(=O)c2c(C)nn(C)c2C)cc1,-7%,-6%
COc1cccc(/C=N/NC(=O)CNC(=O)C(c2ccccc2)c2ccccc2)c1O,?,3.5µM*
COc1cc(/C=N/NC(=O)CCC(=O)NC2CCCCC2)ccc1C,-3%,i
COc1cc(OC)cc(-c2c(-c3cccs3)c3cc(-c4ccc(C(N)=O)cc4)ccc3n2C)c1,?,-16%
CCOc1ccsc1C(=O)OC,-9%,i
CCC(=O)N[C@@H]1C=C[C@@H](CC(=O)NCc2ccccc2F)O[C@@H]1CO,0%,-9%

# In another format: entries from further up.
# Results follow in this order: Vaccinia Venus	Vaccinia mCherry
- CC1CC2OC(=O)C3(C)CCCC(C)(C23)C1(O)CCc1ccoc1 (stereo not drawn)
→ -6%	-9%
- Cn1c(=O)c2[nH]c(CCNC(=O)c3ccccc3)nc2n(C)c1=O
→ -6%	i
- COc1ccc([C@@H]2CC=C(C(=O)O)[C@H](c3ccc(F)cc3)N2S(=O)(=O)c2ccc(Cl)cc2)cc1
→ -4%	-3%
- Cc1ccc(OC(C)C(=O)Nc2cc(C)on2)cc1 (stereo not drawn)
→ -6%	-14%
- COc1ccccc1OCCn1cc(/C=N/NC(=O)c2ccncc2)c2ccccc21
→ -1%	i
- CCOc1ccc(NS(=O)(=O)c2ccc(C(=O)N(C)C)s2)cc1
→ -5%	-12%

# Next records:
SMILES,Vaccinia Venus,Vaccinia mCherry
COc1ccc(C2CC(c3ccc(F)cc3)n3nc(NS(C)(=O)=O)nc3N2)cc1 (stereo not drawn),-15%,6%
CC(C)(C)c1nn(-c2ccccc2)c2[nH]c(=O)c(CNc3ccc4c(c3)OCCO4)cc12,-9%,i
CCOC(=O)c1c(C)oc2nc(C)nc(Nc3cc(C)ccc3OC)c12,3%,-5%
COc1ccc(C(=O)/C=C/Nc2ccccn2)cc1,-12%,-8%
COC(=O)CCCn1nc(NC(=O)COc2ccc(F)cc2)cc1C,-4%,13%
COc1cc(/C=N/N2C(C)CCCC2C)cc(Br)c1O (stereo not drawn),-12%,-15%
CCOC(=O)c1[nH]c(C)c(CCC(=O)N2CCN(c3cccc(C)c3C)CC2)c1C,-18%,-26%
COc1ccc(N2C(=O)CCC(C(=O)NCc3ccccn3)C2c2ccc(OC)c(OC)c2)cc1 (stereo not drawn),?,i
Cc1ccc(CSCC(=O)Nc2ccccc2)cc1,-9%,i
Cc1ccc(NC(=O)Cc2ccc([N+](=O)[O-])cc2)c(Br)c1,-2%,-12%
NNC(=O)c1cccc(COc2ccccc2Br)c1,-28%,-12%
CNC(=O)OCCc1nccn1C,-5%,-9%
CSc1nn(-c2ccc(C(=O)OC(C(=O)NC(N)=O)C(C)C)cc2)c(=S)s1 (stereo not drawn),-13%,-2%
CCN1CCN(CCCN(Cc2ccco2)C(=S)Nc2cccc(Cl)c2C)CC1,-8%,-17%
COc1ccc(S(=O)(=O)N2CCCCC2c2cc(C(=O)NCc3ccc(F)cc3)no2)cc1 (stereo not drawn),-10%,7%
Cc1ccc(OCC(=O)Nc2ccc3c(c2)ncn3C)cc1,-3%,-13%
Cc1c(C)c2c(OCC(=O)NCc3ccccn3)cc3c(c2oc1=O)CCC(C)(C)O3,-8%,-5%

# Rows are unselected. Share with any hit: about 0.82%.
